VACV Venus inh: qHTS for Stage-Specific Inhibitors of Vaccinia Orthopoxvirus: Venus Reporter Primary qHTS | Potency, µM (doses to about 36.5 µM), without a hit: at the top dose activity change, negative = inhibition, actives largely listed as inhibitors | Vaccinia virus Venus reporter expression, fluorescence | AID 720580, 2013 | actives 0.46% (n = 330,000); active means well fitted inhibition curve with a large enough effect; inconclusive means small, poorly fitted or top-dose-only effect; inactive means no such curve, though single readings can be large or run the other way; tested in A549 cells; further: nearly all actives have a fitted effect of over 30% in size; inactives centre near -10
Vaccinia mCherry: qHTS for Stage-Specific Inhibitors of Vaccinia Orthopoxvirus: mCherry Reporter Primary qHTS | Vaccinia virus mCherry reporter infection, fluorescence; about a quarter of the inactives have no number | Potency, µM (doses to about 36.5 µM), for the others: at the top dose activity change, negative = inhibition, usual class: inhibitors | actives 0.63% (n = 310,000); active = well fitted inhibition curve with a large enough effect; inconclusive = small, poorly fitted or top-dose-only effect; inactive = no such curve, though single readings can be large or run the other way; tested in A549 cells; further: nearly all actives have a fitted effect of over 35% in size; inactives centre near -10
* marks the source's active call; other numbers are inactive results; i = inactive; ? = inconclusive; . = no result given; & = joins results of further samples; [ ] = dose if it differs, or a comment. On the % scale 0 is the no-effect control and ±100 the full control effect; potency means the concentration at half of the fitted maximal effect.

Structure | VACV Venus inh | Vaccinia mCherry
CC1=C(C#N)C(c2ccc(O)cc2)C2=C(CCCC2=O)N1 (stereo not drawn) | -6% | i
CC(C)N(CC(N)=O)c1ncnc2sc(-c3ccccc3)cc12 | -9% | i
CCN(CC)c1ccc(NC(=O)C2COc3ccc(OC)cc3C2)c(C)c1 (stereo not drawn) | ? | ?
Cc1ccccc1OCCCC(=O)Nc1ccc(Br)cc1 | -22% | -2%
O=c1c2ccccc2[nH]c2ccc(O)cc12 | -2% | ?
COC(=O)C(CC(C(=O)OC)C(=O)OC)C(=O)OC | -12% | .
C=CCn1c(SCC(=O)N2CCN(C(=O)OCC)CC2)nc2c([nH]c3ccccc32)c1=O | -23% | i
CCc1cccc(C)c1N=Cc1c(O)c2ccccc2oc1=O | ? | -16%
CC(C)C[C@H]1CNC(=O)C(=O)N1CC1CCN(CCC(C)(C)C)CC1 | -26% | i
N=c1n(CCO)c2ccccc2n1CCOc1ccc(Cl)cc1Cl | 11µM* | ?
COC(=O)[C@@H]1C[C@@H]2CC[C@@H](O)C[C@@H]2N1Cc1ccc(C(F)(F)F)cc1 | -27% | ?
O=C(NCC(c1cccnc1)N1CCN(c2ccccc2)CC1)C1CCCCC1 (stereo not drawn) | -13% | -15%
CCOc1ccc(C(=O)Nc2ccccc2C(=O)OCc2cc(=O)n3nc(C4CC4)sc3n2)cc1 | -7% | -8%
COC(=O)c1cc(/C=C/c2ccccc2)on1 | 0% | -7%
CC1Oc2ccccc2N(CC(=O)NC2CCCC2)C1=O (stereo not drawn) | -3% | 2%
CN1CCN(c2ccc(Cl)cc2NC(=O)/C=C/c2cccc(F)c2)CC1 | -25% | ?
C=CCOc1ccc(C=Nc2ccc(C)c(Cl)c2)c(O)c1 | -7% | i
CC(=O)N1CCc2c(sc3c2c(=O)n(-c2ccc(C)cc2)c(=O)n3CC(=O)Nc2ccccc2)C1 | -21% | -3%
Cc1ccc(C)c(N2CCN(C(=O)c3ccc4c(c3)N(Cc3ccc(F)cc3)C(=O)c3ccccc3S4=O)CC2)c1 (stereo not drawn) | -22% | -19%
Cc1cccc(NC(=O)c2c(Br)sc3c2CCCC3)c1 | 4% | -15%
O=c1cccc2n1CC1CC2CN(c2nc(N3CCCCC3)nc(N3CCCCC3)n2)C1 (stereo not drawn) | -13% | -4%
COCCCN(CC(=O)O)S(=O)(=O)c1ccccc1 | -9% | i
COc1ccccc1N1CCN(Cc2cn[nH]c2-c2ccc(F)cc2)CC1 | -5% | -17%
O=C(Cn1ccc(=O)[nH]c1=O)Nc1nccs1 | 3% | -15%
CCOC(=O)CSc1nnc(NC(=O)CN2CCCCC2)s1 | -18% | -5%

Structure | VACV Venus inh | Vaccinia mCherry
CCOc1ccccc1NC(=O)C(CC)Sc1nc2ncccc2[nH]1 (stereo not drawn) | -10% | -7%
O=C(O)CC(c1ccc(Cl)cc1)n1cccc1 (stereo not drawn) | -7% | i
CC12CC3CC(C)(C1)CC(CN)(C3)C2 | -11% | .
COc1cc(OC)c(NC(=O)Cn2c(=O)nc(-c3ccccc3)c3ccccc32)cc1Cl | -18% | -5%
NC(=O)c1ccccc1NC(=O)c1cccc(C(=O)Nc2ccccc2C(N)=O)n1 | -5% | -14%
CCOc1ccc(C(CC(=O)O)NC(=O)Cc2ccc(Cl)cc2)cc1 (stereo not drawn) | -1% | 2%
COc1ccc(OC)c(N(CC(=O)N2CCCC2)S(=O)(=O)c2ccccc2)c1 | -4% | i
Nc1c(C(=O)Nc2ccc3c(c2)OCCO3)nnn1Cc1cccc(Cl)c1 | -22% | -3%
CCOC(=O)c1cc(-c2cccnc2)nn1-c1ccccc1 | -15% | 5%
CCOc1ccc2oc(C(=O)Nc3ccc4c(c3)OCO4)c(C)c2c1 | -15% | -17%
O=C(NCc1ccccc1)C(=O)NCC1OCCN1C(=O)c1cccs1 (stereo not drawn) | -7% | i
COc1ccccc1C(=O)NCC(=O)N1CC=C(c2ccccc2)CC1 | -28% | ?
O=C(COC(=O)C1CC(=O)N(Cc2ccco2)C1)c1ccc(OC(=O)c2ccccc2)cc1 (stereo not drawn) | -11% | -4%
N#Cc1csc(CCNC(=O)c2ccccc2)n1 | -2% | i
CCc1cccc(N=c2c([N+](=O)[O-])nn(-c3ccc(Cl)cc3)n2O)c1 | -23% | -17%
Cc1cccc(Cn2nnc3c(=O)[nH]c(C4CCN(C(=O)c5ccccc5F)CC4)nc32)c1 | -4% | 6%
O=C(CCN1C(=O)c2ccccc2C1=O)N(CCO)Cc1ccccc1 | -6% | -25%
CC1SCC(=O)N(CC(=O)NC2CCCCC2)C1=O (stereo not drawn) | -6% | -1%
CC(/C=C/c1cccc([N+](=O)[O-])c1)=N\NC(=O)c1ccncc1 | -17% | -21%
O=C(CCN1C(=O)COc2ccccc21)NCCCN1CCN(c2ccc(F)cc2)CC1 | -13% | -21%
Cc1cc(C)n2c(SCC(O)=C(C#N)c3nc4ccccc4[nH]3)nnc2n1 | 3% | 0%
CN(CC(=O)Nc1ccccc1C(F)(F)F)C(=O)CC1OC(=O)c2ccccc21 (stereo not drawn) | -6% | -10%
CC1CC(C)CN(C(=O)C2CCN(S(=O)(=O)c3c(Cl)cccc3Cl)CC2)C1 (stereo not drawn) | -17% | -3%
O=C(CCN1C(=O)c2ccccc2S1(=O)=O)Nc1ccc(C(=O)O)cc1 | -3% | -2%
Cc1ccccc1OCCSc1nc2ccc(NC(=O)c3cccs3)cc2s1 | -23% | -16%

Structure | VACV Venus inh | Vaccinia mCherry
COc1ccc(N2C(=O)S[C@@H]3CS(=O)(=O)C[C@@H]32)cc1 | -13% | -15%
Cc1sc2ncnc(N3CCC(C(=O)NNC(=O)c4ccc(F)cc4)CC3)c2c1C | -14% | -6%
COC(=O)Nc1nnc(-c2ccccc2Cl)s1 | 0% | .
O=C(CN1C(=O)COc2ccc(S(=O)(=O)NC3CCCC3)cc21)Nc1ccc(F)c(Cl)c1 | -19% | -21%
CCCC(c1nnnn1CC(=O)OCC)N(Cc1cc2ccc(C)cc2[nH]c1=O)C1CCCC1 (stereo not drawn) | -20% | .
CCN(CC)S(=O)(=O)c1cccc(NC(=O)COc2ccc(C#N)cc2OC)c1 | -21% | -26%
Cc1ccc(C)c(S(=O)(=O)N2CCCC2CNC(=O)C(=O)NCCc2ccccc2)c1 (stereo not drawn) | ? | -14%
CCC(=O)NS(=O)(=O)c1ccc(N=NN2CCCCC2)cc1 | -4% | i
CCCCCCCCCCSc1n[nH]c(NC(C)=O)n1 | 1% | -11%
Cc1ccc(CC(NC(=O)c2ccccc2)C(=O)NCC(=O)O)cc1 (stereo not drawn) | -5% | -1%
CC(=O)N(C)c1ccc(N=Cc2c(O)ccc3ccccc23)cc1 | -10% | -21%
Cc1cccc(NC(=O)C(=O)NCc2ccc3c(c2)OCO3)c1C | -6% | -17%
CCN(C(=O)COC(=O)/C=C/c1ccc(OC(F)F)c(OC)c1)C1CCS(=O)(=O)C1 (stereo not drawn) | -9% | -10%
Cc1[nH]c(=O)[nH]c(=O)c1S(=O)(=O)N1CCN(c2ccccc2Cl)CC1 | -12% | -10%
O=c1n(-c2ccccc2)c(=O)n2n1CCC2 | 0% | -12%
O=C(CC1OC(=O)c2ccccc21)NCC1COc2ccccc2O1 (stereo not drawn) | -5% | i
O=C(O)CCC(=O)c1ccc2c(c1)OCCO2 | 10% | 10%
Cn1nnc2cc(NC(=O)N3CCN(c4ccccn4)CC3)ccc21 | 2% | i
CC(=O)Nc1sc2c(c1C(=O)N1CCOCC1)CCCCC2 | -15% | -20%
CC(=O)N1N=C(c2cccc(Br)c2)OC12CCCC2 | -6% | -1%
Cn1nc(C(=O)Nc2cccc(S(=O)(=O)N3CCCCC3)c2)c2ccccc2c1=O | -22% | -24%
O=C(O)c1cccc(NC(=S)NC(=O)c2ccncc2)c1 | 8% | -5%
CCn1cc(CNCc2ccc(OCC(O)CN(C)Cc3ccccc3)cc2)cn1 (stereo not drawn) | -11% | -16%
CCCCNC(=O)CSc1nc2cc3c(cc2c(=O)n1CCC(=O)NCCc1ccc(OC)c(OC)c1)OCO3 | 5% | i
COCCn1c(=N)c(C(=O)NCc2ccco2)cc2c(=O)n3ccccc3nc21 | 1% | 1%

Structure | VACV Venus inh | Vaccinia mCherry
COc1ccccc1NC(=O)CCSc1nnc(-c2ccco2)o1 | -6% | -13%
Cc1ccc(Br)c(NS(=O)(=O)c2cccc(C(=O)N3CCNC(=O)C3)c2)c1 | 0% | -17%
CC(NC(=O)Cc1ccsc1)c1ccc(S(N)(=O)=O)cc1 (stereo not drawn) | -22% | i
Cc1c(Cl)cccc1N(CC(=O)N1CCCCCC1)S(C)(=O)=O | -7% | -20%
COc1cccc(NC(=O)CN(C)CC(=O)Nc2cccc(C(F)(F)F)c2)c1 | -17% | i
CCOC(=O)C(NCCc1ccc(F)cc1)(NC(=O)CC)C(F)(F)F (stereo not drawn) | -9% | -2%
O=C(COc1ccccc1)N1CCN(Cc2c[nH]c3ccccc23)CC1 | -21% | .
Cc1cc2c(c(CO)c1CCO)C(=O)[C@@H](C)[C@@H]2O | -10% | i
Cc1cccnc1NC(=O)c1ccc(S(=O)(=O)N2CCCCC2)cc1 | -16% | -4%
O=C(CSc1ncnc2scc(-c3ccc(F)cc3)c12)c1ccc2c(c1)OCCO2 | -19% | i
O=C(Nc1ccccn1)c1ccc(S(=O)(=O)N2CCCCCC2)cc1 | -21% | -4%
CN1CCN(C(=O)CSc2nc(-c3cccs3)ccc2C#N)CC1 | -28% | .
CCCNC(=O)c1ccc2c(c1)N(Cc1cccc(C)c1)C(=O)c1ccccc1S2 | -8% | -8%
Cc1cccc(S(=O)(=O)NC(=O)C2(C)CCN2C(=O)Cc2ccsc2)c1 (stereo not drawn) | -2% | 26%
O=C(CSc1nc2scc(-c3ccccc3)c2c(=O)[nH]1)N1CCOCC1 | -14% | -8%
CCOC(=O)CSc1nc2c(sc(=S)n2-c2ccc(CC)cc2)c(=O)[nH]1 | -17% | -19%
COc1cc(CNCCSc2nnnn2C)cc(Cl)c1OCc1ccccc1 | -17% | -20%
CCOc1cccc2cc(C(=O)Nc3ccccc3-c3ccccc3)c(=O)oc12 | -1% | i
C[C@H](CCC(=O)NCC(=O)O)[C@H]1CC[C@H]2[C@@H]3[C@H](O)C[C@@H]4C[C@H](O)CC[C@]4(C)[C@H]3C[C@H](O)[C@]12C | -11%&-17%&-10% | -9%
Cc1cc2c(cc1C)NC(C)CC(=O)N2 (stereo not drawn) | -5% | -25%
CC(=O)Oc1c(C)c(C)c2c(c1C)CC[C@@](C)(CCC[C@H](C)CCC[C@H](C)CCCC(C)C)O2 | -17% | i
CC1(C)CC(=O)C=C(NC2CCCCC2)C1 | 0% | i
COc1ccc(N(CC(=O)NCc2ccccc2OC)S(=O)(=O)c2ccccc2)cc1 | -19% | i
CC(Sc1nnnn1-c1ccc(O)cc1)C(=O)NNC(=O)c1ccc(F)cc1 (stereo not drawn) | -10% | -14%
Cc1ccc(N=Cc2c(O)n(-c3ccc4c(c3)OCO4)c(=O)c3ccccc23)cc1 | ? | ?

Complete entries as entered above. Order of screens: VACV Venus inh, Vaccinia mCherry
Cc1cccc(S(=O)(=O)NC(=O)C2(C)CCN2C(=O)Cc2ccsc2)c1 (stereo not drawn) as listed: -2%, 26%
CC(Sc1nnnn1-c1ccc(O)cc1)C(=O)NNC(=O)c1ccc(F)cc1 (stereo not drawn) as listed: -10%, -14%
Cc1cccnc1NC(=O)c1ccc(S(=O)(=O)N2CCCCC2)cc1 as listed: -16%, -4%

The results go on.
Structure | VACV Venus inh | Vaccinia mCherry
C#CCOC(=O)CCCC(=O)NCCCCCCCC | -16% | -6%
O=C(Nc1ccccc1Br)c1cccc2ccccc12 | -10% | -5%
O=c1[nH]cnc2c1nc(NCc1ccccc1)n2C1O[C@@H](CO)[C@H](O)[C@@H]1O (stereo partly drawn) | -14% | i
CCCc1[nH][nH]c(=O)c1C(c1ccc(Cl)cc1)C(C#N)C#N (stereo not drawn) | -16% | -21%
CC(=O)Nc1cc[n+](C(C)C(=O)c2ccc(Br)cc2)cc1 (stereo not drawn) | -8% | -9%
Cc1cc(=O)n2nc(N(C)CC(=O)NCc3cccc(Br)c3)sc2n1 | 0% | -5%
COC(=O)c1ccc(-c2nc(CN3CCC(C(=O)N4CCOCC4)CC3)c(C)o2)cc1 | -13% | i
O=C(Cc1c[nH]c2ccccc12)NCc1ccncc1 | -12% | -1%
COc1ccccc1NC(=O)c1ccc(Cl)c(S(=O)(=O)N2CCOCC2)c1 | -3% | -11%[1.46 µM]
CC(=O)c1ccc(NC(=O)CSc2nc3[nH]c(=O)cc(O)c3s2)cc1 | -17% | i
O=C(NC1CCCCC1)c1cc2nc3c(c(C(F)(F)F)n2n1)CCCC3 | -22% | .
COc1ccc(CNS(=O)(=O)c2ccc(-c3ccc(=O)[nH]n3)s2)cc1OC | -6% | i
